Bioassay records: PubChem, National Center for Advancing Translational Sciences (NCATS)
Vaccinia mCherry: inhibitors of vaccinia virus infection (mCherry reporter signal); AID 720579; Vaccinia virus mCherry reporter infection, fluorescence; about a quarter of the inactives have no number; Potency, µM (series often up to 36.5 µM), for the others: at the highest dose activity change, negative = inhibition, actives largely listed as inhibitors; 310,000 compounds, 0.63% hits; active = well fitted inhibition curve with a large enough effect; inconclusive = small, poorly fitted or top-dose-only effect; inactive = no such curve, though single readings can be large or run the other way; tested in A549 cells; note: nearly all actives have a fitted effect of over 35% in size; inactives centre near -10
Vaccinia Venus: vaccinia inhibition (Venus reporter). Vaccinia virus Venus reporter expression, fluorescence. Potency, µM (highest dose often 36.5 µM), for inactives: top-dose activity change, negative = inhibition, actives largely listed as inhibitors. 330,000 compounds, 0.46% hits. AID 720580; active means well fitted inhibition curve with a large enough effect; inconclusive means small, poorly fitted or top-dose-only effect; inactive means no such curve, though single readings can be large or run the other way; tested in A549 cells; note: nearly all actives have a fitted effect of over 30% in size; inactives centre near -10
Active calls of the source: *; i = inactive; u = inconclusive; x = not tested or not shown; & = joins results of further samples; [ ] = remark or other dose. % is set by controls: 0 for no effect and ±100 for the full control effect; potency is the fitted concentration of half-maximal effect. An unsorted share of the library; overall some 0.82% were active at least once.

SMILES	Vaccinia mCherry	Vaccinia Venus
O=C(O)CCCCCN1C(=O)C(O)=C(C(=O)/C=C/c2ccccc2)C1c1ccc2c(c1)OCO2 (centres undefined)	i	-7%
O=C(CN1C(=O)S/C(=C\C=C\c2ccccc2)C1=O)N1CCCCC1	-1%	-8%
O=C(NCc1ccccc1)C1Cc2c(-c3cccc(F)c3)ccnc2O1 (centres undefined)	-25%	u
COC(=O)c1cc(NS(=O)(=O)c2ccc(N3CCOCC3)c(N)c2)cc(C(=O)OC)c1	-16%	-26%
CC(C)=C[C@@H]1C[C@H](C)[C@H]2CC[C@H](C)c3c(O)c(O)c(C)c1c32	u	-19%
CC(NC(=O)c1ccco1)C(=O)N(C)Cc1ccc(C(F)(F)F)cc1 (centres undefined)	-15%	-7%
Cc1ccc(-c2cc(-c3ccc(F)cc3)c(C#N)c(N)n2)o1	-16%	2%
N#Cc1cccc(C(=O)OCc2cccc(S(=O)(=O)N3CCOCC3)c2)c1	-8%	-5%
COc1ccc(CC(=O)Nc2ccc3c(C)cc(=O)oc3c2)cc1OC	-12%	-8%
CC(=O)c1cccc(NC(=O)c2nc(-c3ccccc3)n(-c3ccccc3C)n2)c1	-10%	-4%
CCn1c2ccccc2c2cc(CN3CCN(S(=O)(=O)Cc4ccccc4)CC3)ccc21	-29%	-27%
COc1ccccc1NS(=O)(=O)c1cccc(C(=O)N/N=C/c2ccc3c(c2)OCCO3)c1	-15%	-14%
COc1ccc(N2CCN(C(=O)CNC(=O)c3ccco3)CC2)cc1	i	-9%
CC(=O)c1ccc(N2CCN(S(=O)(=O)c3ccc4[nH]c5c(c4c3)CCCC5)CC2)cc1	-23%	-19%
CCc1cccc(C)c1NC(=O)c1cc(CN2CCCC2)on1	1%	-8%
COc1ccccc1NC(=O)c1cnc(SCC(=O)N2CCCc3ccccc32)n(C)c1=O	-10%	-13%
CCOc1ccc(OCC)c(NC(=O)CN(C)S(=O)(=O)c2ccc3[nH]c(=O)oc3c2)c1	-11%	-8%
O=C(Nc1ccc(C(F)(F)F)cc1)c1cc(S(=O)(=O)N2CCCc3ccccc32)ccc1F	-22%	-26%
OCCN1CCN(c2ncnc3c2ncn3[C@H]2CN(Cc3ccc4c(c3)OCO4)C[C@@H](CO)O2)CC1	28%	6%
CSc1nc2cc(Oc3cccc(Cl)c3Cl)c(Cl)cc2[nH]1	-12%	-21%
CCOC(=O)CN[C@H]1CCC2C3CC=C4C[C@@H](O)CC[C@]4(C)C3CC[C@@]21C (some centres undefined)	-12%	-2%
CCCn1c(SCC(=O)N(C)C2CCCCC2)n[nH]c1=O	-15%	-15%
Cc1nn(C)c2c1c(-c1ccccc1)cc(=O)n2Cc1c(F)cccc1Cl	-10%	-10%
O=C(CCc1nnc(CCCCc2ccccc2)o1)N1CCC(N2CCCC2)CC1	-4%	-16%
O=C(OCN1C(=O)c2ccccc2C1=O)c1ccc(Cl)nc1	19%	-11%
COc1ccc(-c2cc(C3CCN(Cc4ccc([N+](=O)[O-])cc4)CC3)[nH]n2)cc1	-14%	-3%
CCn1nc(C)c(CNC(=O)c2cc(COc3ccc(C)nc3)on2)c1C	i	-10%
O=C(Cn1c(=O)n(-c2ccccc2)c(=O)c2ccc(C(=O)NCc3ccc4c(c3)OCO4)cc21)Nc1ccc(F)cc1	-16%	-26%
COc1ccc(S(=O)(=O)NCCc2nnc3ccc(SCc4cccnc4)nn23)cc1	i	-1%
O=C(CCCO)c1ccc2c(c1)OCCO2	-5%	-13%
CCN1CCN(c2nc3c(c(=O)[nH]c(=O)n3C)n2CCCSc2ncccn2)CC1	-13%[1.46 µM]	-8%
Cc1nn(C)cc1C=NCCOCc1ccccc1	i	-12%
O=C(O)c1cccc(NCc2cccnc2)c1	x	-14%
COc1ccc(-c2nc3c4ccccc4ccn3c2Cc2ccc(C)cc2)cc1OC	1%	10%
COCOCCn1cc(CN2CCS(=O)(=O)N(Cc3ccc(-c4ccc(F)cc4)cc3)C(CC(C)C)C2=O)nn1 (centres undefined)	-4%	u
CCSc1ncc(Cl)c(C(=O)Nc2sc3c(c2C(=O)NC)CCCC3)n1	-15%&-13%	-7%&-23%
CCCCCCCN1CCC(=O)N([C@H](CO)Cc2ccccc2)CC1	u	-21%&-14%
COc1ccc(CCNC(=O)c2csc3c2CCCC3)cc1OC	-10%	-12%
NC(Cc1ccc(C(F)(F)F)cc1)c1csc(NC(=O)Nc2ccccc2Cc2ccccc2)n1 (centres undefined)	11µM*	13µM*
Cc1ccc(OCCC(=O)OCC(=O)N2c3ccccc3NC(=O)C2(C)C)cc1	-6%	4%

Some values from the results shown.
CCOC(=O)CN[C@H]1CCC2C3CC=C4C[C@@H](O)CC[C@]4(C)C3CC[C@@]21C (some centres undefined) | Vaccinia Venus = -2%
COc1ccc(-c2cc(C3CCN(Cc4ccc([N+](=O)[O-])cc4)CC3)[nH]n2)cc1 | Vaccinia Venus = -3%
Cc1ccc(OCCC(=O)OCC(=O)N2c3ccccc3NC(=O)C2(C)C)cc1 | Vaccinia Venus = 4%
COc1ccc(CCNC(=O)c2csc3c2CCCC3)cc1OC | Vaccinia Venus = -12%
CCn1nc(C)c(CNC(=O)c2cc(COc3ccc(C)nc3)on2)c1C | Vaccinia Venus = -10%

Part of the list above, with each value named.
COc1ccc(CC(=O)Nc2ccc3c(C)cc(=O)oc3c2)cc1OC
  Vaccinia mCherry: -12%
  Vaccinia Venus: -8%
CC(=O)c1cccc(NC(=O)c2nc(-c3ccccc3)n(-c3ccccc3C)n2)c1
  Vaccinia mCherry: -10%
  Vaccinia Venus: -4%
CCn1c2ccccc2c2cc(CN3CCN(S(=O)(=O)Cc4ccccc4)CC3)ccc21
  Vaccinia mCherry: -29%
  Vaccinia Venus: -27%
COc1ccccc1NS(=O)(=O)c1cccc(C(=O)N/N=C/c2ccc3c(c2)OCCO3)c1
  Vaccinia mCherry: -15%
  Vaccinia Venus: -14%

The listing continues:
SMILES	Vaccinia mCherry	Vaccinia Venus
COC(=O)c1c(NC(=O)C2CC=CCC2C(=O)O)sc2c1CCCCC2 (centres undefined)	-16%	-13%
Cc1ccccc1N1C(=O)CC(N2CCC(C(N)=O)CC2)C1=O (centres undefined)	-7%	-11%
COC(=O)C[C@H]1C=C[C@@H](NC(=O)Nc2cccc(OC)c2)[C@@H](CO)O1	-4%	4%
COc1ccccc1NC(=O)/C(=C/c1cccc([N+](=O)[O-])c1)c1ccccc1	-26%	-17%
O=C1Nc2ccc(S(=O)(=O)N3CCCCCC3)c3cccc1c23	8%	-26%
O=C(NC1CC1)c1ccc(NC(=O)C2CCCCC2)cc1	6%	-4%
CCN1CCOC(=O)C1CC(=O)Nc1ccc(C(C)=O)cc1 (centres undefined)	-11%	10%
Cc1cc(C(=S)N2CCOCC2)c(C)n1-c1ccc(Cl)cc1	-6%	-19%
CCOC(=O)CSc1nc2ccc(NC(=O)c3cccc(F)c3)cc2s1	-1%	-17%
C#CCN(CC=C)C(=O)c1cccc(OC2CCN(S(C)(=O)=O)CC2)c1	i	-10%
Cc1ccc2cc(CN(C)C(=O)c3cccc(Cl)c3)c(=O)[nH]c2c1	i	-17%
CCC(Sc1nnc(-c2ccc(OC)cc2)c(-c2ccc(OC)cc2)n1)C(=O)NC1CCCCC1 (centres undefined)	3%	-5%
Cc1cc(C)n(-c2nc3ccccc3nc2N2CCN(S(=O)(=O)c3ccc(F)c(C)c3)CC2)n1	-10%	-15%
O=C(Cn1nnc2ccccc2c1=O)NC1CCCCC1	12%	-9%
Cc1c2cnn(CC(=O)N3CCN(c4ccccc4)CC3)c(=O)c2c(C)n1Cc1ccccc1Cl	-6%	-2%
O=C(CSc1nc2ccccc2c(=O)n1CC1CCCO1)NCc1ccccc1 (centres undefined)	i	-5%
O=C(Nc1ccc(OC(=O)c2cccs2)cc1)c1ccco1	-13%	-9%
CCOc1ccc(OCC(=O)OCC(=O)N2CCN(C(=O)c3ccco3)CC2)cc1	i	-18%
CCOP(=O)(OCC)/C(C#N)=C/c1c[nH]c2ccccc12	-13%	-12%
COCC(C)n1c(C)cc(C(=O)Cn2nc(C(=O)O)c3ccccc3c2=O)c1C (centres undefined)	-5%	-8%
COc1ccc([N+](=O)[O-])cc1NC(=O)C(C)OC(=O)Cn1[nH]c(=O)c2ccccc2c1=O (centres undefined)	i	-6%
C=CCn1cc(C(=O)NCc2ccc3c(c2)OCO3)c(=O)c2cc(S(=O)(=O)N(CC)CC)ccc21	-24%	-22%
CC1(C(=O)NCc2ccccc2)CSCC(=O)N1Cc1cccc(F)c1 (centres undefined)	-14%	1%
CC(C)CNC(=O)c1c(F)c(F)c(F)c(F)c1F	-20%	-20%
Cn1ncc(Cl)c(Oc2ccc(Cl)cc2)c1=O	u	u
CCS(=O)(=O)c1ccc2oc(Nc3ccccc3Br)nc2c1	i	-15%
COCCNC(=O)C(c1cccc(OC)c1)N(C(=O)Cn1nnc2ccccc21)c1cccnc1 (centres undefined)	-11%	6%
Cc1ccc(N(CC(=O)Nc2ccc(-c3nc4ccc(C)cc4s3)cc2)S(C)(=O)=O)cc1	x	u
CCN(CC)C1CCN(C(=O)c2cnn(-c3ncc4c(n3)-c3ccccc3CCC4)c2COC)C1 (centres undefined)	-7%	-1%
COc1ccccc1-c1nnc2sc(COc3ccc(F)cc3)nn12	i	-18%
Cc1nc2ccc(NC(=O)c3nn(C(C)C)c(=O)c4ccccc34)cc2s1	-20%	-13%
COc1cccc(C2NC(=O)NC(C)=C2C(=O)Nc2cccc(C)c2C)c1 (centres undefined)	i	-5%
COCC1OS(=O)(=O)NC(CC(=O)SC(C)(C)C)C1C (centres undefined)	i	-10%
CC(C)Oc1ccc(C(=O)NCC(=O)O)cc1	-15%	-11%
Cc1ccc(C(=O)C2C(c3cccs3)NC(=O)NC2(O)C(F)(F)F)cc1 (centres undefined)	-10%	0%
[O-][n+]1cccc2c(Br)cc(Br)c(O)c21	i	-9%
Cc1ccccc1S(=O)(=O)NC(=O)C1(C)CCN1C(=O)c1ccccc1CCc1ccccc1 (centres undefined)	27%	-13%
NC(=S)NN=C1c2ccccc2-c2cc(Br)ccc21	u	u
O=C(CSCC(=O)N1CCOCC1)Nc1ccccc1	x	-6%
COc1ccc(/C=N/NC(=O)CNC(=O)c2ccncc2)cc1	-10%	0%
Cc1ccccc1NC(=O)Nc1csc2c1CCCC2	0%	-17%
O=C(NCc1cc(C(F)(F)F)ccc1Cl)c1cccc2c1C(=O)c1ccc(N3CCOCC3)cc1S2(=O)=O	-28%	10µM*
CCOC(=O)C1CCN(S(=O)(=O)c2ccc(Br)c(OCC)c2)CC1	x	-12%
Cc1ccccc1-c1cc(C(=O)NCc2cccs2)n(CC2CC(c3cccnc3)=NO2)n1 (centres undefined)	-5%	u
Cc1c(S(=O)(=O)N2CCCC(C)C2)c(=O)n(C)c(=O)n1C (centres undefined)	i	-12%
Cc1cccc(C)c1OC(=O)c1ccccc1	-1%	0%
CCN(CC)c1cc2c(cc1F)c(=O)c(S(=O)(=O)c1ccccc1)cn2C	-10%	-17%
CC1(C)Cn2c(nnc2-c2ccccc2)S1	-6%	-2%
CN1CCN(C(=S)C(=O)NCc2ccccc2)CC1	3%	3%
COc1ccccc1N(CC(=O)NCc1ccco1)C(=O)CCC(=O)Nc1ccccn1	1%	0%
COc1cc(NC(=O)Cn2nc(Cc3cccnc3)c3ccccc3c2=O)cc(OC)c1OC	-6%&-11%	-8%&4%
O=C(NC(NC(=S)Nc1ccccc1C(=O)O)C(Cl)(Cl)Cl)c1ccccc1 (centres undefined)	u	1%
Oc1c(Cl)cc(Cl)c2c1NCCC2	-23%	-16%
Cc1ccccc1C(=O)NCC(=O)OC1CCCCC1=O (centres undefined)	i	-11%
COc1ccc(NC(=S)c2ccccc2)cc1	i	-17%
CCSc1nc(C)c(CC)c(C)c1C(N)=O	x	u
COc1ccc(CCCc2n[nH]c(=S)o2)cc1C	-9%	-21%
COc1ccc(N(CC(=O)NCc2ccccc2)C(=O)Cn2nnc(-c3ccccc3F)n2)cc1OC	-1%	-8%
O=C(NCCc1ccccc1)C1CCN(C(=O)N2CCOc3ccccc32)CC1	-11%	0%
Cc1ccc(NC(=O)COC(=O)c2ccnn2C)cc1	-8%	-7%

Seven entries from above, reformatted:
Compound | Vaccinia mCherry | Vaccinia Venus
CCN(CC)c1cc2c(cc1F)c(=O)c(S(=O)(=O)c1ccccc1)cn2C | -10% | -17%
CC1(C)Cn2c(nnc2-c2ccccc2)S1 | -6% | -2%
CN1CCN(C(=S)C(=O)NCc2ccccc2)CC1 | 3% | 3%
COc1ccccc1N(CC(=O)NCc1ccco1)C(=O)CCC(=O)Nc1ccccn1 | 1% | 0%
COc1cc(NC(=O)Cn2nc(Cc3cccnc3)c3ccccc3c2=O)cc(OC)c1OC | -6%&-11% | -8%&4%
O=C(NC(NC(=S)Nc1ccccc1C(=O)O)C(Cl)(Cl)Cl)c1ccccc1 (centres undefined) | u | 1%
Oc1c(Cl)cc(Cl)c2c1NCCC2 | -23% | -16%

Next compounds follow:
SMILES	Vaccinia mCherry	Vaccinia Venus
CN(C)C(=O)CCc1ccc2c3c([nH]c2c1)[C@]1(CCC2CCCC2)[C@@H](C(=O)N2CCOCC2)C[C@H](CC(=O)NCc2ccco2)C(=O)N1CC3	2%	0%
Cc1ccc(-c2nn(-c3ccccc3)cc2C=C2C(=O)CC(C)(C)CC2=O)cc1	-17%[1.46 µM]	-16%
NC12CC3CC(C1)CC(CO)(C3)O2	x	-14%
CC(C)(c1ccccc1)c1ccc(OCCN2CCCC2)cc1	u	-26%
CCC(=O)c1ccc(OCC(=O)N(Cc2nnc(-c3ccccc3Cl)o2)C2CC2)cc1	-21%	-22%
